T cruzi inh: blocks replication of Trypanosoma cruzi | T. cruzi beta-gal in NIH3T3, luminescence, 90 h | inhibition, % (test concentration not listed) | actives 1.4% (n = 300,000);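 active = mean inhibition across valid replicates above about 55%, limit read from the data; inconclusive = mean below that limit but half or more replicates reach it; inactive = mean below it, under half of replicates reach it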;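 also: signal also drops with host cell toxicity which is not excluded here; 0% = plate median of DMSO wells and 100% = zero luminescence signal; higher percent means less beta-gal luminescence so fewer parasites; stock transfer was 50 nL into about 50 µL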
Bfl-1 A1 inh: inhibitors of the anti-apoptotic protein A1, read as caspase activation | MEF A1-2A-BIM cells, Caspase-Glo 3/7 luminescence, 3 h; percent of clofoctol response, vehicle zero | caspase activation, % (test concentration not listed) | actives 0.066% (n = 330,000) | AID 2462;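 active = over half of replicate activation scores above 10%, or exactly half above 10 with the replicate mean above 10; inconclusive = replicate mean below 10 yet half the replicates above 10; inactive = over half of replicates below 10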;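 also: wells of about 30 µL received 50 nL stock; many hits fall short of the cut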
Beta apoptosis: blocks beta cell apoptosis | INS-1E cytokine-induced death, ATP luminescence, 48 h; percent of positive-control rescue, neutral wells zero | protection from apoptosis, % (concentration not given with the values) | actives 0.8% (n = 300,000);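 active = all replicates at 75% or more, or half of them and the mean; inconclusive = half reach 75% but not the mean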;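 also: 0% = cytokine-treated negative control wells and 100% = positive control rescue; higher means more ATP so stronger rescue from cytokine killing; wells of about 40 µL received 100 nL stock; the first replicate is given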
Ecoli rRNA inh: inhibitors of bacterial rRNA selective over humanized ribosomes. E. coli WT GFP vs humanized-ribosome RFP mutants, fluorescence, 24 h; active compounds read low; DMSO median 0, no signal -100. GFP signal change (wild-type ribosome), % (concentration not given with the values). actives 1.6% (n = 350,000);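 active = significant combined selectivity score with lowered wild-type GFP, culture density cut under 30%, mutant RFP and density less affected; inactive = any of these conditions unmet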; also: one replicate is shown; some compounds called inactive have numbers as strong as hits
Calb FLC: affects C. albicans growth with fluconazole; C. albicans CaCi-2 (fluconazole-resistant clinical isolate) + fluconazole, Alamar Blue growth, 48 h; actives 0.57% (n = 300,000); growth inhibition, % (test concentration not listed);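 active = most replicates above 75%; inconclusive = exactly half above 75%; inactive = most below 75%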;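 also: all wells also contain fluconazole at 8 µg/ml as a sub-toxic cotreatment; 0% = median of DMSO wells and 100% = median of geldanamycin control wells; wells of about 8 µL received 7.5 nL stock; the first replicate is given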
LANA-H2A inh: blocks KSHV LANA binding to histone H2A/H2B; Q9QR71; cell-free LANA-H2A/H2B peptide, fluorescence polarization; inhibition, % (concentration not given with the values); actives 0.6% (n = 320,000); AID 2629; in the data active = inhibition mostly above about 10%, no sharp cut-off; inactive = mostly below about 6.7%;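 also: stock transfer was 7.5 nL into about 10 µL; 0% = median of vehicle wells and 100% = median of positive control wells; one replicate is shown; the record names a cut of 25% in any replicate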
ALR inh: blocks human ALR sulfhydryl oxidase activity; P55789; inhibition, % (concentration not given with the values); actives 3.8% (n = 290,000); purified ALR, DTT oxidation, H2O2 HRP-luminol luminescence;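 active = mean and each replicate at 75% or more; inconclusive = only one of the two met; inactive = neither met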;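 also: stock transfer was 7.5 nL into about 7.5 µL; 0% = neutral wells and 100% = wells with inactivated enzyme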
Target sequence (P55789 whole entry, looked up): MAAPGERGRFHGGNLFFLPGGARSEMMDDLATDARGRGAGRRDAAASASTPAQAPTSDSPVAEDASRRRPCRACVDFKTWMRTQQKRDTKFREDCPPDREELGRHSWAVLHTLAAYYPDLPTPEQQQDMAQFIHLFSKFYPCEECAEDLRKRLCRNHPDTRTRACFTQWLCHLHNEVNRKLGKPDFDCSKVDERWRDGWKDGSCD
B2AR ag: activates human beta-2 adrenergic receptor causing internalization; actives 0.43% (n = 340,000); AID 504454; P07550; response, % (concentration not given with the values); Am2.2-beta2AR cells, FAP receptor internalization, flow cytometry; reference of the scale not given here;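 active = response above a set limit, near 3 SD of response in nonfluorescent compounds, cut at about 42% in these data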;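 also: stock transfer was 100 nL into about 11 µL; a reference agonist was the positive control; negative values mostly stem from fluorescent compounds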
Target sequence (P07550 whole entry, looked up): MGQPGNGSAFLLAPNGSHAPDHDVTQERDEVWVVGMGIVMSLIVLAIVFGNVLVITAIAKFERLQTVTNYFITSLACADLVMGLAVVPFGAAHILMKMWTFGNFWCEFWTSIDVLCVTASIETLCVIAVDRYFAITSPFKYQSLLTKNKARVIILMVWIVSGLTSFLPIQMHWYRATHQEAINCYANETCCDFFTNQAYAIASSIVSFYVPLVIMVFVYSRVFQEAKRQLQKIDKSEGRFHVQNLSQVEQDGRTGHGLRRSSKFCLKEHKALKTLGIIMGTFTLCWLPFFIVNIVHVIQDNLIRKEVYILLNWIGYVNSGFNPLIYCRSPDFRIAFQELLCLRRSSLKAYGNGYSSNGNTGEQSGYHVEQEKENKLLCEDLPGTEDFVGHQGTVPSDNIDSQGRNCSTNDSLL
Ecoli rRNA inh OD600: second read-out of Ecoli rRNA inh, no call of its own (marks repeat the call); OD600 change, %; measured here: OD600 growth;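 optical density of the mix in the first replicate; 0 = DMSO median and -100 = no signal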
Ecoli rRNA inh RFP: also measured in Ecoli rRNA inh; calls as there; RFP signal change, %; measured here: RFP humanized mutant strains;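 first replicate; 0 = DMSO median and -100 = no signal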
An asterisk follows results filed as active; u = inconclusive; x = no result given.

Value order: T cruzi inh	Bfl-1 A1 inh	Beta apoptosis	Ecoli rRNA inh	Ecoli rRNA inh OD600	Ecoli rRNA inh RFP	Calb FLC	LANA-H2A inh	ALR inh	B2AR ag
O=C(CCNC(=O)C1CCN(S(=O)(=O)c2ccc(F)cc2)CC1)NCCc1ccc(Cl)cc1
→ 7	-0.2	-3	1	13	-0.9	0	-0.7	-18	1
Cc1ccc(-c2nc3ccccc3s2)cc1NC(=O)c1cc(-n2cnnc2)ccc1Cl
→ -9	-0.3	8	19	5	1.7	11	-2.1	-12	10
CCc1ccc(N2CC(C(=O)Nc3ccc(F)cc3)CC2=O)cc1 (stereo not drawn)
→ -15	-0.5	-4	-2	10	0.1	-9	-8.1	x	-6
Cc1ccccc1CN(c1ccc(C(=O)N2CCCC2)cc1)S(C)(=O)=O
→ 4	0.1	3	2	1	-1.1	u	-6.1	-11	-5
O=C(/C=C/C=C/c1ccccc1)c1ccco1
→ 8	0.6	5	7	11	-6.4	7	-4.2	26	-12
O=C(NCCCN1CCOCC1)c1cc2cc(Br)ccc2oc1=O
→ -5	0.2	7	x	x	x	5	2.9	1	-12
Cc1cc(Nc2ccccc2)n2nc(C)c(-c3ccccc3)c2n1
→ 35	-0.1	14	15	14	0.0	3	9.1	-10	7
OCCC1CN(Cc2ccc3nsnc3c2)CCN1C1CCCC1 (stereo not drawn)
→ 6	0.2	-7	6	3	-0.1	u	-0.3	-3	1
CCOc1ccc(-c2nnc(SCC(=O)N3CCCC3)o2)cc1
→ -12	0.6	-6	6	3	0.6	-1	2.5	-12	-7
CC(=O)Nc1ccc(S(=O)(=O)NCc2ccc(C(=O)NCc3ccc4c(c3)OCO4)cc2)cc1
→ -1	0.2	-1	x	x	x	-1	1.3	-1	6
CCOC(=O)C1CCN(S(=O)(=O)CCNC(=O)c2cccc(OC)c2)CC1
→ -3	-0.7	-2	2	4	-0.9	4	5.6	-1	6
N/C(=N\O)c1cccc(CS(=O)(=O)c2ccccn2)c1
→ 7	-0.2	2	13	5	-1.3	6	-4.9	4	-4
CSCc1nc2sc(C(=O)Nc3nc(C)cs3)c(C)c2c(=O)[nH]1
→ 6	-0.8	0	x	x	x	-8	-0.8	58	-4
Cc1ccc(CCNC(=O)C2CCC(=O)N(CC3CCCCC3)C2)cc1 (stereo not drawn)
→ 8	0.0	-1	-19	-17	-2.0	-2	12	-1	-5
COc1ccc(C(=O)Nc2ccc([N+](=O)[O-])cn2)c(OC)c1
→ -2	-3.4	-3	x	x	x	24	-4.5	22	2
Cc1ccc(C)c(N(C(=O)c2csnn2)C(C(=O)NC2CCCCC2)c2ccncc2)c1 (stereo not drawn)
→ -11	0.5	2	4	7	-1.4	1	2.9	-2	2
Cc1ccc(CC(=O)Nc2nccs2)cc1
→ 0	u	-1	9	14	3.2	-13	-7.1	10	-7
CC(CN1CCOCC1)C(=O)O (stereo not drawn)
→ -13	-0.3	-2	x	x	x	-16	1.3	3	1
O=P(COc1ccccc1)(c1ccccc1)c1ccccc1
→ 2	-0.5	-3	x	x	x	15	0.6	4	-2
OC(CNCc1ccc2c(c1)OCO2)COc1ccccc1 (stereo not drawn)
→ 10	-0.6	-3	1	-1	-0.7	-12	-1.0	-7	-15

Single records, as listed above. Values in the order: T cruzi inh	Bfl-1 A1 inh	Beta apoptosis	Ecoli rRNA inh	Ecoli rRNA inh OD600	Ecoli rRNA inh RFP	Calb FLC	LANA-H2A inh	ALR inh	B2AR ag
Listed for CC(=O)Nc1ccc(S(=O)(=O)NCc2ccc(C(=O)NCc3ccc4c(c3)OCO4)cc2)cc1 = -1	0.2	-1	x	x	x	-1	1.3	-1	6
Listed for CCOC(=O)C1CCN(S(=O)(=O)CCNC(=O)c2cccc(OC)c2)CC1 = -3	-0.7	-2	2	4	-0.9	4	5.6	-1	6

New compounds follow.
Value order: T cruzi inh	Bfl-1 A1 inh	Beta apoptosis	Ecoli rRNA inh	Ecoli rRNA inh OD600	Ecoli rRNA inh RFP	Calb FLC	LANA-H2A inh	ALR inh	B2AR ag
COCCC(=O)N1CCCC(C(=O)c2ccccc2SC)C1 (stereo not drawn)
→ 15	0.0	-4	5	6	-1.1	-6	-1.5	x	-12
Oc1ccccc1/C=N/NC(=S)NC1CC2C=CC1C2 (stereo not drawn)
→ -27	0.0	x	-39*	-24*	-9.9*	-1	3.3	x	-1
O=C(c1cc(-c2ccc(Cl)cc2)on1)N1CCCCCC1
→ 8	-2.1	1	x	x	x	5	-0.7	-5	-4
COc1ccc(C)cc1NC(=O)CNC(=O)Cn1ccc2ccccc2c1=O
→ -4	-0.9	-7	x	x	x	-7	-1.7	-2	-5
O=C(CNC(=O)c1ccccc1F)c1ccc(Br)cc1
→ 7	-5.4	2	17	21	4.1	5	1.1	-8	-5
Cc1ccc(SCc2c(C#N)c3ccccc3n2C)cc1
→ 27	-0.6	0	x	x	x	2	5.2	99*	-9
CCOc1ccc(NC(=O)CS(=O)(=O)c2cn(C)c3ccccc23)cc1
→ -8	-0.4	-6	8	13	0.7	0	-3.6	-15	2
Cc1cc(=O)oc2cc(OCC(=O)OCC(=O)Nc3ccccc3F)ccc12
→ -10	-0.3	-6	8	6	0.4	-9	2.5	0	8
CCCCC(=O)N1CCCC(c2nc3c(nnn3Cc3cc(C)ccc3C)c(=O)[nH]2)C1 (stereo not drawn)
→ 28	0.4	11	x	x	x	-4	3.4	-5	-11
CN(Cc1nc(-c2ccncc2)no1)S(=O)(=O)c1ccccc1
→ 12	-0.6	-3	x	x	x	6	3.2	2	7
O=C(C[n+]1ccccn1)c1ccccc1
→ -7	0.4	3	-2	-2	-2.0	-4	4.7	-20	1
Cc1cccc(CNC(=O)C2CCCN(c3nn4c(=O)cc(C)nc4s3)C2)c1 (stereo not drawn)
→ -22	-0.1	-5	0	-2	-6.0	-6	-1.4	-10	9
CCN1CCN(CCNC(=O)CCCCCn2c(=O)[nH]c3cc(C(=O)OC)ccc3c2=O)CC1
→ -22	3.0	-5	x	x	x	-2	-6.0	3	-3
Cc1ccc(C(=O)NCC(=O)OCC(=O)NC2CCS(=O)(=O)C2)cc1C (stereo not drawn)
→ -8	0.2	-3	x	x	x	x	0.8	-5	-5
O=C(O)C1CCC(=O)N1C1c2ccccc2Oc2ccccc21 (stereo not drawn)
→ -12	0.0	-6	10	10	-1.1	3	-6.1	-9	-2
COc1ccc(C(=O)NOCc2ccccc2)cc1
→ -14	-4.6	-3	5	8	10	4	0.8	x	-3
Cc1ccccc1/C=N\NC(=O)c1csnn1
→ -2	-6.5	-4	x	x	x	-4	3.6	x	-3
Cc1c(C(=O)NCC(c2ccco2)N(C)C)oc2c(Cl)cccc12 (stereo not drawn)
→ 17	0.2	-1	-8	-5	-1.3	x	1.0	-5	18
O=C1/C(=C\c2ccccn2)SC(=S)N1c1ccc(S(=O)(=O)Nc2nccs2)cc1
→ -18	-0.5	-2	15	3	9.3	-8	3.5	0	2
COc1cccc(COc2ccc(N(C)S(=O)(=O)c3ccccc3)cc2)c1
→ 10	-0.3	1	11	0	0.9	-3	3.7	x	0

Value order: T cruzi inh	Bfl-1 A1 inh	Beta apoptosis	Ecoli rRNA inh	Ecoli rRNA inh OD600	Ecoli rRNA inh RFP	Calb FLC	LANA-H2A inh	ALR inh	B2AR ag
Cc1ccsc1/C=N\NC(=O)c1n[nH]c2c1CCC2
→ -16	-7.5	20	x	x	x	-14	-2.8	-9	-6
O=C1C/C(=C\c2c(F)cccc2Cl)N2CCC1CC2
→ 3	-0.1	-2	-2	2	-7.1	8	0.2	-1	-6
COc1cc(OC)c(C2=NOC(C(=O)O)C2)cc1Cl (stereo not drawn)
→ -9	0.4	-3	x	x	x	u	-2.3	-2	-3
COc1cc(/C(C)=N/NC(=O)CSc2nc3ccccc3[nH]2)ccc1O
→ -6	0.3	1	-11	-2	-2.0	0	3.2	99*	0
COc1ccc(-n2nc3c(c2NC(=O)c2ccc(Br)cc2)CS(=O)C3)cc1 (stereo not drawn)
→ 0	0.0	-3	-10	-8	-0.4	13	0.3	-5	1
Cn1cnnc1SCC(=O)Nc1cc(S(=O)(=O)N2CCCCC2)ccc1Cl
→ -5	-0.1	-2	-19	-31	-16	-9	2.2	-4	-13
Cc1cccc(C(=O)NCC(=O)NCCSc2ccc(Br)cc2)c1
→ -10	-0.1	x	-22*	-14*	3.6*	-2	-5.3	x	0
COc1ccc2sc(-c3ccc(SC)cc3)c(-c3ccc(O)cc3)c2c1
→ x	1.3	17	7	13	-5.1	x	3.6	-2	53*
CSc1ccc(S(=O)(=O)Nc2cccc(F)c2)cc1
→ -1	1.3	-3	x	x	x	13	0.3	9	x
O=c1c2ccccc2oc2cc(C#Cc3ccccn3)ccc12
→ 20	-11	-1	1	3	-2.8	6	0.6	20	-9
O=c1cc(Cl)c(-c2ccccc2)nn1Cc1ccc(Cl)cc1
→ 10	-0.4	-7	-22	-52	3.3	-3	3.9	x	-2

Five records drawn at random from the list so far, as already listed:
Value order: T cruzi inh	Bfl-1 A1 inh	Beta apoptosis	Ecoli rRNA inh	Ecoli rRNA inh OD600	Ecoli rRNA inh RFP	Calb FLC	LANA-H2A inh	ALR inh	B2AR ag
COc1ccc(-n2nc3c(c2NC(=O)c2ccc(Br)cc2)CS(=O)C3)cc1 (stereo not drawn)
→ 0	0.0	-3	-10	-8	-0.4	13	0.3	-5	1
COc1cc(OC)c(C2=NOC(C(=O)O)C2)cc1Cl (stereo not drawn)
→ -9	0.4	-3	x	x	x	u	-2.3	-2	-3
Cc1cccc(C(=O)NCC(=O)NCCSc2ccc(Br)cc2)c1
→ -10	-0.1	x	-22*	-14*	3.6*	-2	-5.3	x	0
O=c1c2ccccc2oc2cc(C#Cc3ccccn3)ccc12
→ 20	-11	-1	1	3	-2.8	6	0.6	20	-9
O=c1cc(Cl)c(-c2ccccc2)nn1Cc1ccc(Cl)cc1
→ 10	-0.4	-7	-22	-52	3.3	-3	3.9	x	-2

Screens deposited in PubChem BioAssay by several laboratories.

Some of the compounds tested; count on the stated rates, not on these rows.
